Rango complex inh – prevents formation of the Rango-importin beta complex. Potency, µM (top dose mostly 92.2 µM), for inactives: at the highest dose inhibition of complex formation. actives 0.031% (n = 340,000). AID 540263. Rango CFP/YFP FRET sensor + importin beta, 45 min; active = rising FRET ratio curve, often small or poorly fitted; inconclusive = mostly compound fluorescence or quenching in the first reads; inactive = flat curves in all reads;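 further: potency means the concentration at half of the fitted maximal effect; 0% = DMSO wells and 100% = buffer wells lacking importin beta; nearly all actives have a fitted effect of over 15% in size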
Target sequence (Q14974 whole entry, looked up): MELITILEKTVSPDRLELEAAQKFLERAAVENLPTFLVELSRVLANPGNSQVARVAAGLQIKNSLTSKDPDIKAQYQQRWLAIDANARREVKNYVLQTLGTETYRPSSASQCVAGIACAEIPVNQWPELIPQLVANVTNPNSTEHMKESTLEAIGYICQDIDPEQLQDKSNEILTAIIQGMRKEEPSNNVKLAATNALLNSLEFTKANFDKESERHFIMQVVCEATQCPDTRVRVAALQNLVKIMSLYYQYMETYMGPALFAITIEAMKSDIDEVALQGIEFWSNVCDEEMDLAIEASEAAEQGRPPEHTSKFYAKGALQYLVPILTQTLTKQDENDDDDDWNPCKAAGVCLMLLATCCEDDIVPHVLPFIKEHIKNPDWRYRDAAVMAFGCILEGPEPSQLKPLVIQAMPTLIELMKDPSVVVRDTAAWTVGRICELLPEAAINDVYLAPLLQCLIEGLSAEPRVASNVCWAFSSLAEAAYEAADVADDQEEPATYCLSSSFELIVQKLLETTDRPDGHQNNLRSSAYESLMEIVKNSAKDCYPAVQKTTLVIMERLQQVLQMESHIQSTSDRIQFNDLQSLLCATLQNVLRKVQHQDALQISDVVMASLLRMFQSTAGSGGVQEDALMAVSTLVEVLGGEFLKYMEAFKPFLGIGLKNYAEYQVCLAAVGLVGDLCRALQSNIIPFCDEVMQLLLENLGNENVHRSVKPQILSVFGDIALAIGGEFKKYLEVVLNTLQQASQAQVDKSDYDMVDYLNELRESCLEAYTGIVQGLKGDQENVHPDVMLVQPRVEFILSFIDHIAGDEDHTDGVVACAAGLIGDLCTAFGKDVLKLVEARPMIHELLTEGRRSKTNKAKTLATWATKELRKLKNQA
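Inhibition scored from the CFP 486 nm/YFP 530 nm FRET ratio 45 min after adding 0.125 microM importin beta to 50 nM Rango biosensor preincubated 5 min with compound (room temperature, PBS with DTT, Tween-20, BSA). No-importin wells as positive control.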
GLA inh pH 4.5 – blocks human alpha-galactosidase A at pH 4.5. P06280. purified enzyme, 4-MU-alpha-Gal fluorescence, pH 4.5. activity change, negative = inhibition, % at 105 µM. 230,000 tested, under 10 active. AID 1467; inconclusive = small, poorly fitted or top-dose-only inhibition, or a rising curve; inactive = flat fitted curve, though single readings scatter; no compound was filed as active;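 further: 0% = full activity with enzyme and -100% = basal without enzyme; dose as in the result columns while the protocol names 77 µM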
Rango dissoc inh – prevents RanGTP from dissociating the Rango-importin beta complex. actives 0.071% (n = 340,000). AID 540253. Potency, µM (titrated, usually from 46.1 µM), for the others: top-dose activity change, negative = inhibition. O95149+P62826. Biochemical FRET Rango-importin beta, RanGTP-induced dissociation; active means falling FRET ratio curve, often poorly fitted, with flat reads before Ran was added; inconclusive means other falling curves, or compound fluorescence or quenching; inactive means flat or rising ratio curve;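 further: potency means the concentration at half of the fitted maximal effect; % of control where 0% means no effect; nearly all actives have a fitted effect of over 45% in size; -100% = wells without RanGTP and RCC1; the record marks most hits as doubtful in a second field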
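Rango (0.1 uM)–importin beta (0.25 uM) complex; RanGTP-RCC1 trigger; 45 min RT; CFP/YFP FRET read.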
miR-21 FLuc – raises the signal of a miR-21 reporter. HeLa miR-21 FLuc reporter, luciferase, 48 h. Potency, µM (titrated, usually from 38.3 µM), inactives show top-dose reporter change, positive = more light. 340,000 tested, under 10 active; active = well fitted rising curve with a large enough effect; inconclusive = small, poorly fitted or top-dose-only effect; inactive = no such curve, though single readings can be large or run the other way;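 further: % of control where 0% means no effect; miR-21 action dims this reporter so a rising signal means less miR-21 action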
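Using DMEM plus 10% FBS, HeLa miR-21-FLuc cells are incubated with test compounds (final up to about 40uM) for 48 hours; firefly luciferase signal is then imaged following reagent-mediated lysis.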
The depositor's hits bear a star; ? = inconclusive; . = not tested or not shown; & = joins results of further samples.

SMILES	Rango complex inh	GLA inh pH 4.5	Rango dissoc inh	miR-21 FLuc
Cc1cc(S(=O)(=O)n2[nH]c(=O)c(CCO)c2C)c(Cl)cc1Cl	3.9%	.	5%	-1%
COc1cccc(NC(=O)N2CCCC2C(=O)NC(C)C)c1 (centres undefined)	?	-6	6%	-3%
CCSC1=C(C#N)C(c2ccc(C)s2)CC(=O)N1 (centres undefined)	-0.5%	7	-8%	-1%
Cn1cccc1CC(=O)NNC(=S)Nc1ccc(Cl)cc1	1.2%	2	-10%	-18%
COc1cccc(-c2noc(-c3ccc4c(c3)OCO4)n2)c1	5.0%	6	-12%	-69%
S=C(NCc1ccco1)N1CCN(c2nc(-c3ccc(Cl)cc3)cs2)CC1	-4.5%	-2	1%	16%
COC(=O)C1=C(C)N(Cc2ccco2)C(=O)C1	-0.3%	0	-7%	-1%
Cc1noc2ncnc(Sc3ccc(Cl)cc3)c12	4.3%	-1	5%	3%
CCCCCCCn1c(=O)c(C(=O)OC)c(N)c2ccccc21	0.3%	-3	-3%	0%
O=C(CSc1ncccn1)NN=C1CCCCCCC1	12%	-1	3%	-2%
Cc1cccc(NC(=O)C(C)Sc2nc3ccccc3c(=O)n2CCCN2CCOCC2)c1 (centres undefined)	0.6%	.	10%	.
O=C(CCN1C(=O)/C(=C/c2ccccc2Cl)SC1=S)NC1C=CS(=O)(=O)C1 (centres undefined)	-3.3%	.	12%	8%
CCOc1ccc(C(=O)CCC(=O)Nc2ccc(C)cn2)cc1	0.3%	.	-13%	.
O=C(Cc1ccccc1Cl)N1CCN(c2ccccn2)CC1	0.8%	1	-1%	-7%
CN(C)/C=C(\c1cnc(Cl)s1)S(=O)(=O)c1ccccc1	-2.5%	8	-7%	-3%
Cc1ccc(C(C(=O)NC2CCCC2)N(Cc2ccc(F)cc2)C(=O)c2csnn2)o1 (centres undefined)	0.0%	-16	-6%	1%
COc1ccc(N(Cc2cc3cc(C)ccc3[nH]c2=O)C(C)=O)cc1	-2.9%	.	17%	-1%
CCN(CC(=O)Nc1ccc(NC(C)=O)cc1)C(=O)Cc1cccc2ccccc12	0.5%	.	0%	-4%
CC(=O)Oc1ccc(NC(=O)CCC2CCCCC2)c(C(=O)O)c1	5.7%	4	1%	-11%
CCOC(=O)c1ccc(NC(=O)c2nn(C)cc2Br)cc1	-1.5%	1	2%	-49%
COc1ccc(S(=O)(=O)N2CC(C(=O)O)Oc3ccccc32)cc1 (centres undefined)	0.3%	.	0%	-3%
COc1ccccc1N1CCN(/N=C\c2cccnc2)CC1	2.5%	.	-13%	-13%
COc1ccc(Cc2nc(-c3ccccn3)no2)cc1	1.3%	2	0%	-42%
CN(CCCC(=O)NCCc1ccccc1)S(=O)(=O)c1ccc([N+](=O)[O-])cc1	-3.0%	.	-8%	2%
CCN(CC)S(=O)(=O)c1cccc(C(=O)NC(C(=O)NNC(=O)c2ccccc2F)C(C)C)c1 (centres undefined)	0.4%	.	4%	.
CC1(C)C2([N+](=O)[O-])CN3CC1([N+](=O)[O-])CN(C2)C3c1ccc(O)c(O)c1 (centres undefined)	-1.1%	2	33%	-4%
COc1cccc(NC(=O)CN(C)C(=O)c2cccc(S(=O)(=O)N3c4ccccc4CC3C)c2)c1 (centres undefined)	-2.3%	.	-11%	.
O=S(=O)(Nc1ccc2c(c1)OCO2)c1ccccc1	5.4%	11	-23%	0%
CC12CCC(=O)N1C(C(=O)Nc1cc(S(=O)(=O)N3CCCCCC3)ccc1OCC(F)(F)F)CS2 (centres undefined)	?	.	5%	2%
CCOC(=O)c1cc(CC)sc1NC(=O)CCC(=O)O	-4.5%	7	-10%	-7%
O=S(=O)(c1ccccc1)N1CCN(C(=S)NCc2ccccc2)CC1	0.3%	-3	0%	?
O=C(C1CN(S(=O)(=O)c2ccccc2)CCN1S(=O)(=O)c1ccccc1)N1CCCCCC1 (centres undefined)	1.9%	6	2%	-5%
CCC1CCC2(CC1)NC(=O)N(CC(=O)NCc1ccccc1Cl)C2=O (centres undefined)	-0.5%	.	10%	.
OC(COCc1cccs1)CN1CCN(c2ccccc2Cl)CC1 (centres undefined)	0.8%	-1	2%	-13%
CCc1nnc(NC(=O)CCN2C(=O)C3CCCCC3C2=O)s1 (centres undefined)	2.9%	.	3%	-1%
COc1ccccc1C(=O)n1nc(-c2ccccc2)nc1N	5.0%	2	0%	-12%
COc1ccc(NC(=O)c2ccc(-n3nc(C)c[n+]3[O-])cc2)cc1	0.5%	0	-9%	-20%
CC(=O)Nc1cccc(/C(C)=N\NC(=O)c2ccc(Cn3nc([N+](=O)[O-])c(Cl)c3C)o2)c1	-2.9%	5	-14%	-3%
C=CC[C@H]1CC(Cc2ccccc2)=C[C@H](CC=C)N1	-0.6%	3	-9%	-4%
Cc1oc2ccc(OCc3ccc(Cl)cc3)cc2c1C(=O)O	1.8%	-5	21%	-1%
O=C(COC(=O)c1ccc(Cl)c(Cl)c1)Nc1cccnc1Cl	-0.8%	0	-13%	-1%
O=C(c1ccco1)N1CCN(C(=O)C2CCCc3c2[nH]c2ccc(Cl)cc32)CC1 (centres undefined)	-5.7%	-8	-9%	18%
COc1ccc(Oc2ncnc3sccc23)cc1	1.4%	-21	5%	-48%
CCC(Oc1ccccc1)C(=O)Nc1ccsc1C(=O)OC (centres undefined)	-2.8%	5	25%	-12%
O=C(N/C(=C\c1ccc(O)cc1)C(=O)N1CCCCC1)c1ccccc1	0.1%	.	-14%	-2%
CCC1Oc2nc(SC)nnc2-c2ccccc2N1C(=O)c1ccccc1 (centres undefined)	?	0	-1%	-3%
COc1ccc(Cn2cnc3c(NS(C)(=O)=O)c(C)c(C)cc32)cc1	-1.2%	10	-3%	11%
COc1ccc(CCNC(=S)NCc2ccc(Cl)c(Cl)c2)cc1OC	-1.1%	1	-2%	-9%
CC(C)(C=O)C1=CC(=O)c2ccccc2C1=O	?	-7	5%	-10%
COc1ccccc1CC(NC(C)=O)C(=O)N1CCN(C(=O)Nc2ccccc2Cl)CC1 (centres undefined)	0.5%	3	1%	2%
CC(C)Oc1cccc(-c2cc(C(=O)NN3CCOCC3)c3ccccc3n2)c1	0.6%	.	2%	4%
Cc1ccc(Nc2nc(N)nc(CSC(=S)N3CCOCC3)n2)cc1	-1.1%	4	8%	-56%
COC(=O)C1(C(=O)OC)NOC2C(=O)N(c3ccccc3)C(=O)C21 (centres undefined)	8.5%	6	18%	-1%
O=C(c1cn(-c2ccccc2)nc1-c1ccc(Cl)cc1)N1CCOCC1	3.7%	-3	-4%	-9%
CC#CCCCC(=O)Nc1cccc(C(=O)O)c1	4.8%	2	-8%	-37%
CN(C)c1ccc(/C=C(\C#N)c2ccccc2)cc1	?	-9	-23%	-15%
Cc1nc2cc(C(=O)OCC(=O)NC(C)C(C)C)ccc2n1-c1ccccc1 (centres undefined)	-0.4%	13	1%	-10%
COc1ccc2nc(-c3ccccc3)cc(C(=O)OCC(=O)N3CC(C)OC(C)C3)c2c1 (centres undefined)	?	.	?	.
CCN(CC)C(=O)CSc1nnc(-c2ccc(S(=O)(=O)N3CCCC3)cc2)o1	-4.7%	-15	0%	0%
Cc1nnc(NC(=O)CSc2nnc(-c3ccc(S(=O)(=O)N4CCCC4)cc3)n2C)s1	-1.2%	-4	-5%	-5%
(listing goes on)
SMILES	Rango complex inh	GLA inh pH 4.5	Rango dissoc inh	miR-21 FLuc
CC(C)(C)N1C(=O)[C@H]2[C@@H](c3ccc(Br)cc3)N3C(=O)N(c4cccc(Cl)c4)C(=O)[C@@]3(Cc3ccccc3)[C@H]2C1=O	-0.6%	.	1%	.
COc1ccc(/C=N/n2c(C)nc3sc(C)c(C)c3c2=O)cc1	-2.1%	-8	-11%	0%
COc1cccc(-n2c(SCC(=O)NC3CCS(=O)(=O)C3)nc3ccccc3c2=O)c1 (centres undefined)	2.3%	.	-11%	.
Cc1nn(-c2ccccc2)c(C)c1/C=C/C(=O)OCC(=O)Nc1ccc(S(N)(=O)=O)cc1	-4.9%	.	0%	.
Cc1nn(CC(=O)Nc2ccc(Cl)cc2Cl)c(=O)c2ccccc12	-2.2%	.	-8%	1%
CCOc1ncccc1C(=O)OCC(=O)c1ccc(OC)c(OC)c1	-0.4%	-5	-7%	-4%
CCc1noc(C)c1C(=O)Nc1nc(-c2ccc(F)cc2)c(C)s1	-3.7%	.	-9%	4%
O=S(=O)(Nc1cccnc1Cl)c1ccc2c(c1)OCCO2	?	-2	?	-4%
O=C(COC(=O)c1ccccc1O)NC(c1ccccc1)c1ccccc1	3.8%	.	-5%	.
c1ccc2c(c1)oc1c(Nc3ccc4c(c3)OCCO4)ncnc12	0.2%	1	-18%	-22%
CCOCCNC(=O)c1ccc2c3c(cccc13)CC2	-3.8%	3	-3%	-25%
COC(=O)C1(C#N)C(c2ccccc2)C1(C(=O)OC)C(=O)OC (centres undefined)	-0.2%	-8	?	2%
Cc1cc(NCC(C)C)n2ncnc2n1	-1.1%	2	-7%	-9%
O=C(NCC(=O)N1CCCCCC1)c1ccc(OC(F)F)cc1	0.9%	.	-1%	-8%
Cc1cc2c(cc1C)/C(=N/NC(=O)c1ccccn1)CCC2	0.0%	2	13%	-39%
COC(=O)C1=C(C)NC(C)=C(C(=O)OC)C1c1ccco1	-1.5%	-3	11%	1%
O=C(NCc1cccs1)C(=O)c1c[nH]c2ccccc12	-1.3%	-6	0%	-40%
CSc1ccc(/C=C/C(=O)OCC(=O)c2ccc[nH]2)cc1	1.5%	.	-3%	.
CCOc1ccc(N=c2cc(-c3ccc(OC)cc3)oc3ccccc23)cc1	6.7%	-8	0%	-26%
COc1ccc(-c2cc3c(=O)n(CC(=O)NCc4ccc(C)cc4)ncn3n2)cc1	1.1%	.	-11%	-11%
Fc1ccc(NC(=S)Nc2ccc(F)c(Cl)c2)cc1Cl	0.3%	0	-10%	?
COc1ccc(S(=O)(=O)N(C)CC(=O)Nc2ccc3c(c2)OCCO3)cc1	-2.0%	.	6%	.
Cc1ccc(NC(NC(=O)c2ccccc2[N+](=O)[O-])C(Cl)(Cl)Cl)cc1 (centres undefined)	5.7%	-12	-9%	-4%
O=C(COc1cccc(F)c1)Nc1ccc2[nH]c(=O)[nH]c2c1	?	7	?	-12%
COc1ccc(C)cc1S(=O)(=O)N1CCCCC1	1.3%	4	9%	-2%
CCc1ccc(NC(=O)CSc2nnc(CC)c(CC)n2)cc1	-0.5%	5	21%	8%&4%
OCC1CCCCN1C(=S)Nc1cccc(Cl)c1 (centres undefined)	-3.9%	-7	-1%	-10%
CSc1cccc(NC(=O)C2CCCN2S(=O)(=O)c2ccc3c(c2)CCC(=O)N3)c1 (centres undefined)	1.9%	-7	-9%	-12%
Cc1cc(C)c(C(=O)COC(=O)CNC(=O)c2ccccc2C)c(C)c1	0.6%	.	33%	.
CC(C(=O)NN)n1nnc(N2CCOCC2)n1 (centres undefined)	5.7%	-1	-15%	-15%
CC(C)CC(=O)Nc1ccc(C(=O)COC(=O)C2CCC2)cc1	-0.5%	.	-13%	-6%
CCN1C(Nc2ccccc2)=NC[C@@H]1CC(C)C	-4.8%	.	4%	-1%
Cc1ccc(NC(=O)Cn2c(O)c(N=NC(N)=O)c3ccccc32)cc1	-1.7%	4	-1%	26%

A portion of the library; count on the stated rates, not on these rows.
